Assay outcomes from PubChem.
Vaccinia mCherry: vaccinia inhibition (mCherry reporter); Potency, µM (titrated, usually from 36.5 µM), for inactives: at the highest dose activity change, negative = inhibition, most hits filed as inhibitors; Vaccinia virus mCherry reporter infection, fluorescence; about a quarter of the inactives have no number; 0.63% of 310,000 active; active = well fitted inhibition curve with a large enough effect; inconclusive = small, poorly fitted or top-dose-only effect; inactive = no such curve, though single readings can be large or run the other way; tested in A549 cells; further: nearly all actives have a fitted effect of over 35% in size; inactives centre near -10
VACV Venus inh: vaccinia inhibition (Venus reporter). Vaccinia virus Venus reporter expression, fluorescence. Potency, µM (doses to about 36.5 µM), inactives show at the highest dose activity change, negative = inhibition, hits mostly inhibitors. AID 720580. 0.46% of 330,000 active; active means well fitted inhibition curve with a large enough effect; inconclusive means small, poorly fitted or top-dose-only effect; inactive means no such curve, though single readings can be large or run the other way; tested in A549 cells; further: nearly all actives have a fitted effect of over 30% in size; inactives centre near -10
Active calls of the source: *; i = inactive; u = inconclusive; x = not tested or not shown; & = joins results of further samples; [ ] = another dose, or the depositor's remark. On the % scale 0 is the no-effect control and ±100 the full control effect; potency means the concentration at half of the fitted maximal effect. Not a hit list; about 0.87% have a hit in one of these screens.

Second line of a record – Vaccinia mCherry	VACV Venus inh
Cc1ccccc1CCNC(=O)C1CCC(=O)N(C2CCCCCC2)C1 (stereo not drawn)
→ i	-10%
CCC(=O)Nc1ccc(Cl)c(NC(=O)C(C)C)c1
→ -12%	-12%
CCCc1nnc(SCC(=O)Nc2cc(C)on2)n1CCOC
→ 7%	0%
COc1cc(-c2noc(C)c2-c2ccc(N(C)C)nc2)cc(OC)c1OC
→ u	u
CCCC(=O)N1CC(=O)Nc2ccc(Cl)cc2C1c1ccccc1 (stereo not drawn)
→ -16%	-23%
COc1ccc(OC)c(C2=NOC(C(=O)Nc3cc(C)on3)C2)c1 (stereo not drawn)
→ -4%	-4%
O=c1c2c(ncn1Cc1ccccc1)nc1n2CCC1
→ -13%	-6%
CN(C(=O)COc1ccccc1C(=O)NCc1ccccc1)C1CCS(=O)(=O)C1 (stereo not drawn)
→ -10%	-7%
O=C(CSCC(=O)N1CCOCC1)Nc1nc(-c2ccccc2)cs1
→ -8%	-8%
Cc1nc2sccn2c(=O)c1S(=O)(=O)N1CCN(c2cccc(Cl)c2)CC1
→ 12%	-6%
Cc1ccc(S(=O)(=O)NCCCNS(=O)(=O)c2ccc(C)cc2)cc1
→ -23%	-9%
COc1ccc(OC)c(N(CC(=O)NCCSC2CCCCC2)S(=O)(=O)c2ccccc2)c1
→ -18%	-9%
CC(C)OCCCn1c(SCC(=O)c2ccccc2)nc2c(sc3ccccc32)c1=O
→ 0%	2%
CCc1nc2ccccc2c(C(=O)OCc2nnc(-c3ccccc3)o2)c1C
→ -14%	-20%
COc1ccc(C(=O)N/N=C(\C)CC(=O)N2CCN(C=O)CC2)cc1
→ -13%	-3%
O=C1NC2(Nc3ccccc31)C(=O)Nc1ccc(Br)cc12 (stereo not drawn)
→ -12%	-14%
CCC(=O)N1c2ccccc2CC1C(=O)NCCN1CCN(c2cccc(C)c2C)CC1 (stereo not drawn)
→ -16%	-13%
CCOC(=O)N1CN(C(=O)OCC)CN(C(=O)OCC)C1
→ i	-2%
Cc1ccc(C(C)C)cc1S(=O)(=O)NC1CC(C)(C)NC(C)(C)C1
→ -11%	-24%
CCNc1ccc(C(=O)OCC(=O)N2CCCC2)cc1[N+](=O)[O-]
→ i	-12%

The list goes on:
Second line of a record – Vaccinia mCherry	VACV Venus inh
Cc1ccc(/C=C/C(=O)OCC(=O)NCCN2C(=O)CSC2=O)cc1
→ i	-16%
O=C(NC1CCCCC1)N1Cc2ccccc2-n2nncc2C1
→ 9%	-8%
CC(=O)N1Cc2cc(N)ccc2Oc2ccccc21
→ -20%	4%
Cc1cccc(C(C)C)c1NC(=O)Cn1c(=O)oc2cc(S(=O)(=O)N3CCCC3)ccc21
→ i	-14%
COC(=O)c1cc(C(=O)NCCN2C(=O)S/C(=C\c3cccs3)C2=O)cc([N+](=O)[O-])c1
→ -5%	-13%
CCN(CC)c1ccc(NC(=O)Cn2c3ncccc3c(=O)n2-c2ccccc2)c(C)c1
→ -9%[7.34 µM]	-6%[7.34 µM]
COc1ccccc1NC(=O)c1cc(C2CC2)nc2c1c(C)nn2-c1ccc(C)cc1
→ -7%	-8%
CCOC(=O)NC(=O)COC(=O)CNC(=O)c1ccc(OCC)c(OCC)c1
→ -9%	-2%
Cc1cc(C)nc(N2CCC(C(=O)NCc3cccc(C(F)(F)F)c3)CC2)n1
→ i	-12%
Cc1ccc(OC(=O)N(C)C[C@@H]2OCc3cn(nn3)CCCC(=O)N([C@H](C)CO)C[C@H]2C)cc1
→ -3%	-1%
O=C1NC(=O)C(=Cc2ccc(-c3ccc(S(=O)(=O)N4CCOCC4)cc3)o2)C(=O)N1
→ i	-8%
O=C(NCCc1c[nH]c2ccccc12)C(=O)Nc1ccccc1
→ -7%	-16%
COC(C[C@@H]1O[C@@H]1[C@@H](O)[C@H](C)OCc1ccccc1)OC
→ i	1%
CCN(Cc1ccccc1)C(=O)C1CCN(CC2CC=CCC2)CC1 (stereo not drawn)
→ -18%	-12%
C(=N\n1cnnc1)/c1nc2ccccc2[nH]1
→ -6%	2%
CCOc1ccc(OCC)c(NC(=O)C2CCCN(S(=O)(=O)c3c(C)n[nH]c3C)C2)c1 (stereo not drawn)
→ 43%[activator]	-5%
CCCOC1CCCN(Cc2nc(-c3cnccn3)no2)C1 (stereo not drawn)
→ -3%	-2%
CCC(=O)N1CCc2cc(Br)c(S(=O)(=O)CCC(=O)NCCOC)cc21
→ -19%	9%
CCSCCOC(=O)C1=C(C)NC(=O)NC1c1cccc(OC)c1OC (stereo not drawn)
→ -19%	-13%
CCc1ccc2nc(SCC(=O)N3CCCCC3)c(C#N)cc2c1
→ -8%	2%

Nothing new here: two of the compounds above.
Second line of a record – Vaccinia mCherry	VACV Venus inh
Cc1ccccc1CCNC(=O)C1CCC(=O)N(C2CCCCCC2)C1 (stereo not drawn)
→ i	-10%
CCC(=O)Nc1ccc(Cl)c(NC(=O)C(C)C)c1
→ -12%	-12%

Additional entries follow:
Second line of a record – Vaccinia mCherry	VACV Venus inh
O=C(NCc1ccc(F)cc1)c1cc(C2CCCN(C(=O)c3ccc4c(c3)CCO4)C2)on1 (stereo not drawn)
→ -10%	-11%
COc1ccccc1CNC(=O)c1ccc2c(c1)OCO2
→ i	-8%
COc1ccc(C(O)c2nc(-c3ccc(N(C)C)cc3)cs2)cc1 (stereo not drawn)
→ u	u
CN(C)CCC(C(=O)c1ccccc1)c1cccnc1 (stereo not drawn)
→ -11%	-3%
COc1cc2c(-c3ccc4cc[nH]c4c3)c(-c3ccsc3)oc(=O)c2cc1OC
→ -19%	-16%
Cc1cccc(CSC2=NCCN2C(=O)c2ccc(Br)o2)c1
→ i	-8%
CCc1nc2c(OCCC3CCCCC3)cccn2c1N(C)C(=O)c1ccco1
→ i	-10%
COc1cc(C=O)ccc1OS(=O)(=O)c1ccc(NC(C)=O)cc1
→ -13%	-9%
COc1ccc(OC)c(/C=N/NC(=O)CCCC(=O)Nc2cccc(Br)c2)c1
→ u	u
N#Cc1sc2nccc(Nc3ccccc3)c2c1N
→ -2%[7.34 µM]	-18%[7.34 µM]
CCCc1c(-c2cccc(F)c2)ncn1CCc1ccccc1OC
→ -17%	-21%
NCCc1cc(O)c(O)cc1O
→ -11%&-1%&-4%	-9%&-12%&-4%
CN(C(=O)c1ccccc1)C1(C)CCS(=O)(=O)C1 (stereo not drawn)
→ x	u
Cc1ccc(CNS(=O)(=O)c2cc3c(cc2C)NC(=O)CO3)cc1
→ -10%&0%	-11%&1%
CCOC(=O)CSc1nnc(-c2cccs2)n1-c1ccccc1
→ -2%	1%
CCOC(=O)/C(C#N)=C/c1cccc(F)c1
→ -6%	-8%
CSc1nc2ccsc2c(=O)n1-c1cccnc1
→ -5%	-9%
Nc1nccnc1C(=O)OCC(=O)C12CC3CC(CC(C3)C1)C2
→ -4%	0%
CCOc1ccc(N(CC)C(=O)CSc2n[nH]c(-c3ccccc3)n2)cc1
→ i	-24%
CN(C)c1ccc(C(=O)Nc2cccc(-c3nc4cccnc4s3)c2)cc1
→ -15%	0%

Next part
SMILES | Vaccinia mCherry | VACV Venus inh
O=[N+]([O-])c1ccccc1/C=N/n1c(C(F)(F)F)n[nH]c1=S | -4% | -2%
Cc1noc(C)c1CSCC(=O)Nc1nc(-c2ccc(F)c(F)c2)cs1 | i | -12%
FC(F)(F)c1cc(-c2ccccn2)nc2cc(-c3ccccc3)nn12 | i | -5%
c1ccc(-n2cnc3cc(NCc4ccco4)ccc32)cc1 | -27% | u
O=C(Nc1ccc(-c2nc3ccccc3[nH]2)cc1)C1CCCN(Cc2ccn[nH]2)C1 (stereo not drawn) | i | -16%
Cc1cccc(C(=O)N/N=C/c2ccc[nH]2)c1 | -11% | -20%
N#Cc1nc(-c2ccccc2F)oc1N1CCN(C(=O)c2ccco2)CC1 | i | -8%
CN(C)C(CNC(C(=O)Nc1ccc(F)cc1)c1ccccc1)c1ccccc1 (stereo not drawn) | u | -9%
C=CCn1c(SCC(=O)C(C)(C)C)nnc1-c1ccccn1 | i | -4%
CCc1nc(SCC(=O)Nc2ccccc2OC)n[nH]1 | i | -9%
Cc1cccc(-n2ncc3c2CCCC3NC(=O)c2ccncc2)c1C (stereo not drawn) | -12% | -28%
O=C(O)CC/C(=C\c1cc2c(cc1Br)OCO2)c1nc2ccccc2s1 | -8% | -1%
COc1ccc(-c2cn3c(C)c(C(=O)NCc4ccc5c(c4)OCO5)sc3n2)cc1 | i | -1%
Cc1ccc(CN(N=Nc2nonc2N)c2nonc2N)c(C)c1 | -19% | -17%
CC(C)COC(=O)N(C)C[C@H]1OCc2cnnn2CCCC(=O)N([C@@H](C)CO)C[C@H]1C | -3% | -9%
S=C(NCc1ccc(Cl)cc1)Nc1ccc(Cl)cc1Cl | -11% | u
Cc1cc(C(=O)NNC(=S)Nc2ccccc2)nn1C | -17% | -21%
COc1ccc(S(=O)(=O)N2CCN(c3nc(-c4ccccc4)nc4ccccc34)CC2)cc1 | -11% | -18%
CC1CCCN(Cc2nc3c(c(=O)n(C)c(=O)n3C)n2Cc2c(F)cccc2Cl)C1 (stereo not drawn) | i | -12%
Cc1ccccc1C1CC(c2ccc(Br)cc2)Nc2nc(N)nn21 (stereo not drawn) | -11% | -6%
CNC(=S)N/N=C/c1ccc(-c2ccc(Cl)c([N+](=O)[O-])c2)o1 | -18% | -4%
CC1CCCN(C(=S)Nc2ccc(Nc3ccccc3)cc2)C1 (stereo not drawn) | -6% | -8%
Cc1ccc2c(=O)cc(C(=O)N(Cc3ccc(N(C)C)cc3)C3CCS(=O)(=O)C3)oc2c1 (stereo not drawn) | -5% | -4%
CC1CCCCN1C(=O)CSCC(=O)Nc1nc(-c2cccs2)cs1 (stereo not drawn) | u | u
COc1ccccc1CN1CCNCC1 | -4% | -5%

4 compounds picked at random from those above:
SMILES | Vaccinia mCherry | VACV Venus inh
CCOC(=O)N1CN(C(=O)OCC)CN(C(=O)OCC)C1 | i | -2%
CCC(=O)N1c2ccccc2CC1C(=O)NCCN1CCN(c2cccc(C)c2C)CC1 (stereo not drawn) | -16% | -13%
COc1ccccc1CN1CCNCC1 | -4% | -5%
Cc1ccc(/C=C/C(=O)OCC(=O)NCCN2C(=O)CSC2=O)cc1 | i | -16%

The listing continues:
SMILES | Vaccinia mCherry | VACV Venus inh
CCOc1ccccc1NC1(c2ccccc2)C(=O)c2ccccc2C1=O | -2% | 0%
Cc1cccn2cc(-c3cccc(NS(=O)(=O)c4ccc(Cl)c(Cl)c4)c3)nc12 | -3% | -3%
O=C(OCc1ccccc1F)c1cc(S(=O)(=O)N2CCCCC2)ccc1N1CCOCC1 | -13% | u
O=C(CCn1c(=O)c2cccn2c2cccnc21)NCc1cccc(Br)c1 | -14% | -11%
Cc1nn(-c2ccccc2)c(-c2ccccc2)c1C(=O)O | x | 5%
CCOC(=O)c1ccc(NC(=O)CSc2cc(=O)n(CC)c3ccccc23)cc1 | u | u
Nc1ccc(S(=O)(=O)NN=Cc2ccccc2[N+](=O)[O-])cc1 | -11% | -13%
Cc1cccc(CSc2nc3c(c(-c4cccs4)c2C#N)CN(C)CC3)c1 | -3% | -7%
COc1ccc(CCN2CC(C(=O)NCCc3ccc(C)cc3)CC2=O)cc1OC (stereo not drawn) | 0%&-26% | 1%&-20%
CCCCN(C)C(=O)CS(=O)(=O)Cc1nc(-c2cccc(OC)c2)oc1C | i | -16%
Cn1c(=O)c2cc(NC(=S)NC3CCCCC3)ccc2n1C/C=C/c1ccccc1 | 17% | 4%
O=C(COc1ccccc1)NCC1(N2CCCCC2)CCCCC1 | -8% | -6%
CC1(C)CN(c2ccc(C(=O)c3ccccc3)cc2)C1=O | i | -2%
CCc1ccc(N2CC(C(=O)Nc3cc(C)on3)CC2=O)cc1 (stereo not drawn) | -5% | -14%
COc1cc(NCc2ccccc2)c2ncn(Cc3ccccc3)c2c1 | u | -22%
CSc1ccccc1NC(=O)c1c(Br)cnn1C | x | -14%
COc1ccc(N2CCN(C(=O)c3ccc(C)c(NC(=O)c4nsc5ccccc45)c3)CC2)cc1 | -9% | -11%
O=C(c1ccc2c(=O)n(Cc3ccc(Cl)cc3)c(=S)[nH]c2c1)N1CCOCC1 | -4% | -18%
Cn1cc(CC(=O)Nc2cccc(C#N)c2)c2ccccc21 | x | -20%
CCOc1ccccc1N(C(C)=O)S(=O)(=O)c1ccc(Cl)cc1 | i | -15%
CC(C)C[C@H](NC(=O)[C@@H]1Cc2ccccc2CN1C(=O)OC(C)(C)C)C(=O)NCC1CCC(C(=O)O)CC1 (stereo partly drawn) | -6% | 3%
COc1ccccc1CNC(=O)CSc1nc2nc(C)c(Cc3ccccc3C)c(C)n2n1 | -10% | -2%
C#CCn1c(=NC(=O)c2ccco2)sc2cccc(Cl)c21 | -13% | -10%
Cc1ccc(-n2cnnn2)c2cccnc12 | -13% | -3%
CC(=O)N=C1SC2CS(=O)(=O)CC2N1c1cccc(Cl)c1Cl (stereo not drawn) | x | -2%

Additional structures.
SMILES | Vaccinia mCherry | VACV Venus inh
COCCCn1c(SCC(=O)NC(C)C)nnc1-c1ccccc1 | -15% | -9%
CC(=O)OCc1nc2sc(C)c(C)c2c(=O)[nH]1 | -13% | -20%
O=C(N/N=C/c1ccc(F)cc1)c1cc(-c2ccccn2)nc2ccccc12 | -19% | -15%
Cc1cccc(-n2c(=O)cc(N3CCN(c4ccc(F)cc4)CC3)[nH]c2=O)c1 | i | -20%
COc1ccc(Cl)cc1NC(=O)CN(C)CC(=O)Nc1ccccc1C(F)(F)F | i | -23%
CCN(c1ccccc1)S(=O)(=O)c1ccc(N)c(OC)c1 | -8% | -17%
